Compound activity: PubChem, National Center for Advancing Translational Sciences (NCATS)
AmpC nodet inh: inhibitors of E. coli AmpC beta-lactamase without detergent; P00811; AmpC nitrocefin hydrolysis, absorbance 480 nm, no detergent; potencies from a single point are estimates; Potency, µM (doses to about 28.7 µM), for inactives: at the highest dose activity change, negative = inhibition; 1.8% of 71,000 active; active = falling curve, for most hits resting on a single point; inconclusive = weak or doubtful change; inactive = flat or rising curve; note: % of control where 0% means no effect; about half of the hits show no inhibition at the top dose; a quarter of the inactives give rising signals
Target sequence (P00811 whole entry, looked up): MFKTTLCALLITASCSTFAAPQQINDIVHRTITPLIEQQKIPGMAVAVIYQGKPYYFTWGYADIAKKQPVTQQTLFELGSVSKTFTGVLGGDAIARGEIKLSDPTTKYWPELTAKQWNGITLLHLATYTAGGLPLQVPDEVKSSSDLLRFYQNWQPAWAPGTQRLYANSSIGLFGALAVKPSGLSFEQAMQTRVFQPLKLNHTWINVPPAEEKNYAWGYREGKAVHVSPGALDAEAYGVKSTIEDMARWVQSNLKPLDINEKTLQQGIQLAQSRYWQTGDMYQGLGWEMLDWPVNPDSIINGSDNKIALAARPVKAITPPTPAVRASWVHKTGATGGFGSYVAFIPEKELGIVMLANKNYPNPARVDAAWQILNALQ
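AmpC, 20 mM phosphate pH 7.0; 15 min cpd preinc, RT; start with nitrocefin (800 uM stock); A480 kinetic read, 20 s intervals, 4 min. No-enzyme wells = negative control.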
The depositor's hits bear a star; & = joins results of further samples; [ ] = dose if it differs, or a comment. Potency is the fitted concentration of half-maximal effect.

SMILES	AmpC nodet inh
CCOC(=O)N1CCC(n2c(SCC(=O)Nc3ccccc3OC)nc3ccccc3c2=O)CC1	77.1%
CCOc1ccc(-n2c(SCC(N)=O)nc3c([nH]c4ccccc43)c2=O)cc1	-1.6%
COc1ccc2c(c1)CCc1c(C(=O)NCc3cccnc3)noc1-2	22.9%
O=C(CCCN1C(=O)c2ccccc2C1=O)NCc1cccnc1	-9.8%
[Cu].[O-]/N=C1/C(=[OH+])Nc2ccccc21.[O-]Nc1c(O)[nH]c2ccccc12	-6.7%[5.75 µM]
CCC1Oc2ccccc2N(CC(=O)Nc2ccc3c(c2)OCCO3)C1=O (centres undefined)	-11.8%
O=C(CN1C(=O)c2cccc3cccc1c23)Nc1ccc(S(=O)(=O)N2CCOCC2)cc1	51.2%
NC(=O)NC(=O)Nc1ccccc1Cl	-6.8%
CC1(C)CC(=O)C(C#N)=C(NCCCO)C1	-2.1%
N#Cc1nc(-c2cccs2)oc1NCC1CCCO1 (centres undefined)	6.0%
Cn1ncc(Cl)c1C(=O)N1CCc2ccccc21	-11.3%
CN(C)c1ccc(C2C3=C(CCCC3=O)OC3=C2C(=O)CCC3)cc1	41.8%
CCOC(=O)CSc1nnc(-c2ccco2)n1C	-4.4%
O=C(O)C1CC=CCC1C(=O)NCCc1ccccc1 (centres undefined)	-4.9%
CCOC(=O)CCNC(=O)Nc1ccc2nc(C)n(Cc3ccccc3Cl)c(=O)c2c1	107.4%
Nc1ccc(-n2ccnc2)cc1	-13.0%
O=C(c1ccco1)N1CCN(C2CC(=O)N(c3ccc4c(c3)OCO4)C2=O)CC1 (centres undefined)	-9.6%
COc1ccccc1NCCC(=O)OCC(=O)Nc1ccc(Cl)cn1	-16.0%
CCN(CC)CC#CC(C)OCOCC#CCOC (centres undefined)	5.4%
CC(=O)NCc1nc2ccccc2n1C(C)C	-2.6%

Ordered by molar mass (high to low): 3 of the compounds above
SMILES	AmpC nodet inh
O=C(CN1C(=O)c2cccc3cccc1c23)Nc1ccc(S(=O)(=O)N2CCOCC2)cc1	51.2%
COc1ccccc1NCCC(=O)OCC(=O)Nc1ccc(Cl)cn1	-16.0%
CC1(C)CC(=O)C(C#N)=C(NCCCO)C1	-2.1%

Continuation:
SMILES	AmpC nodet inh
O=c1[nH]c(-c2ccncc2)nc2ccccc12	-3.2%
COCCn1c(SCC(=O)c2ccc3c(c2)OCCO3)nnc1-c1ccco1	18.7%
CCn1nnc(NC(=O)c2ccc(C(C)(C)C)cc2)n1	7.7%
O=C(O)C1C2C=CC(O2)C1C(=O)NCCCn1ccnc1 (centres undefined)	-4.0%
COc1ccc(OC)c(NC(=O)Nc2cccc(Cn3cccn3)c2)c1	-6.3%
Cc1ccc(C)c(C(=O)n2cnnc2N)c1	-2.9%
C/C(Cl)=C\Cn1c(=O)c2c(nc3n2CCS3)n(C)c1=O	-1.5%
Cc1cc(C)c2c(N)c(C(=O)NCc3ccco3)sc2n1	-5.6%
Cc1ccc(C)c(S(=O)(=O)Nc2ccc3scnc3c2)c1	-10.3%
CSc1nsc(SCC(=O)N2CCc3ccccc32)n1	0.6%
COc1nc2c(C)cccc2cc1-c1noc(-c2ccco2)n1	21.5%
Cc1noc(C)c1Cn1nc(C(=O)O)c2ccccc2c1=O	12.0%
CC(=O)N1[C@H](C)C=C[C@]1(Cc1ccccc1)C(=O)O	-16.9%
O=C(Cn1cnc2c(nnn2Cc2ccccc2F)c1=O)NCc1ccco1	-1.0%
CC(=O)Nc1ccc(-c2cn3ccsc3n2)cc1	-3.8%
O=C(CN1CCCC1)NCC12CC3CC(CC(C3)C1)C2	-3.4%
CCC(=NCc1ccc2c(c1)OCO2)c1c(O)n(C)c(=O)n(C)c1=O	31.9%
CC1CCc2c(C(=O)NCCCN3CCOCC3)csc2C1 (centres undefined)	10.4%
Cc1noc(C)c1S(=O)(=O)Nc1ccc(C(=O)N2CCc3ccccc3C2)cc1	15.0%
O=C(c1ccccc1)c1nnc(-c2ccccc2F)o1	1.2%
COc1ccc(C(OC(=O)c2c(C)noc2C)C(=O)NC2CCCC2)cc1 (centres undefined)	28.4%
Cc1cc(C)nc(NC(=O)CSc2nnnn2-c2ccccc2)n1	22.6%
c1ccc(OCc2nnc3sc(-c4cccs4)nn23)cc1	3.0%
CCOc1ccc(CCNC(=O)C2CCN(S(=O)(=O)N3CCOCC3)CC2)cc1OCC	44.2%
Cn1c(SCc2nc3ccccc3s2)nnc1-c1cccs1	11.1%
CCC(C)NC(=O)CN1C(=O)CC(C)(C)S(=O)(=O)c2ccccc21 (centres undefined)	15.7%
CCC1(C)CC(c2csc(N)n2)CCO1 (centres undefined)	8.8%
COc1ccc(-c2cc(C(=O)N3CC4(C)CC3CC(C)(C)C4)no2)cc1OC (centres undefined)	137.7%
CCNC(=O)NCCc1c[nH]c2ccc(Cl)cc12	3.2%
CCc1nnc(NC(=O)CSc2nnc(-c3ccoc3C)n2-c2ccc(C)cc2)s1	13.5%
Cn1nc(C(=O)N2CCN(S(=O)(=O)c3ccccc3)CC2)c2ccccc2c1=O	9.9%
Cc1nc(N2CCN(Cc3ccccc3)CC2)[nH]c(=O)c1C	5.0%
COc1ccc(NC(=O)c2cc(OC)c(OC)c(OC)c2)cn1	3.1%
COc1ccc(C(=O)N(CN2CCCC2=O)c2ccccc2OC)cc1OC	7.4%
O=C(O)C1=CCCN(CCON=C(c2ccccc2)c2ccccc2)C1	27.0%&7.2%
C=CCOc1ccc(/C(O)=C2/C(=O)C(=O)N(CCN3CCOCC3)C2c2ccc(C)cc2)cc1 (centres undefined)	5.6%
CCN(CC)S(=O)(=O)c1cccc(-c2nnc(SCC#N)n2Cc2ccccc2)c1	54.8%
COc1ccccc1C(=O)n1nc(-c2ccc(Cl)cc2)nc1N	24.6%
COCCNC(=O)c1cc2c(-c3ccccc3F)nn(C)c2s1	14.6%
Cc1ccc(C2CC(=O)N3CN(Cc4ccco4)CSC3=C2C#N)cc1 (centres undefined)	-8.5%
Cc1nc2ccccc2c2oc(C(=O)NCc3ccc4c(c3)OCO4)cc12	142.3%
Cc1cc(Cl)ccc1OCCCC(N)=O	9.4%
O=C(NCc1ccccn1)C1CCN(S(=O)(=O)c2cccs2)CC1	-5.5%
Cc1ccc(S(=O)(=O)NCc2cn3ccsc3n2)c(C)c1	5.8%
COC(=O)c1ccc(CSc2nnc(SCc3ccc(C(=O)OC)o3)s2)o1	23.2%
CC(=O)Nc1nonc1NC(=O)CSc1ncn[nH]1	-5.6%
CCCC(=O)Nc1ccc(NC(=O)c2ccccc2Cl)nc1	5.5%
COc1ccc(C2/C(=C(\O)c3ccc4c(c3)OCCO4)C(=O)C(=O)N2CCCN(C)C)c(OC)c1 (centres undefined)	-0.3%
Cc1cccc(NC(=O)c2ccc(S(=O)(=O)N(C)C)cc2)c1	-3.9%
Cc1onc(-c2ccccc2Cl)c1C(=O)Nc1cccc(-c2cn3cccnc3n2)c1	79.9%
COC(=O)CSc1nc2ccc(NC(C)=O)cc2s1	-8.0%
Cc1cc(NC(=O)C23CCC(C)(c4nc5cc(Cl)c(Cl)cc5nc42)C3(C)C)no1 (centres undefined)	25.2%
CCC(=O)Nc1ccc(N2CCN(C(=O)c3ccccc3C)CC2)cc1	6.0%
CC(=O)[C@@]1(O)Cc2c(O)c3c(c(O)c2[C@H](O[C@H]2C[C@H](N)[C@H](O)[C@H](C)O2)C1)C(=O)c1ccccc1C3=O	86.3%
COc1ccccc1-n1c(SCC(=O)Nc2ccccc2F)nc2[nH]ncc2c1=O	16.1%
CN1C(C)(C)CC(NC(=O)CCC(=O)NC2CC(C)(C)N(C)C(C)(C)C2)CC1(C)C	9.5%
O=C(c1ccncc1)N1CCC2(CCN(Cc3ccncc3)CC2)CC1	12.2%
COC(=O)c1ccccc1NC(=O)CNC(=O)c1ccco1	4.1%
CC1CCc2nn(CC(=O)NCc3ccco3)cc2C1 (centres undefined)	15.1%
CC1CCc2nc(NC(=O)C3CCCO3)sc2C1 (centres undefined)	20.7%
CC(C)CO	-3.0%
O=C(c1c[nH]c2ccc(S(=O)(=O)N3CCOCC3)cc2c1=O)N1CCN(c2ccccn2)CC1	22.7%
CCCCCn1c(CN2CCN(Cc3ccccc3)CC2)nc2c1c(=O)n(C)c(=O)n2C	118.9%

Nothing new here: entries from further up.
SMILES	AmpC nodet inh
COc1ccc(NC(=O)c2cc(OC)c(OC)c(OC)c2)cn1	3.1%
COc1ccc(C(=O)N(CN2CCCC2=O)c2ccccc2OC)cc1OC	7.4%
O=C(O)C1=CCCN(CCON=C(c2ccccc2)c2ccccc2)C1	27.0%&7.2%
C=CCOc1ccc(/C(O)=C2/C(=O)C(=O)N(CCN3CCOCC3)C2c2ccc(C)cc2)cc1 (centres undefined)	5.6%
CCN(CC)S(=O)(=O)c1cccc(-c2nnc(SCC#N)n2Cc2ccccc2)c1	54.8%
COc1ccccc1C(=O)n1nc(-c2ccc(Cl)cc2)nc1N	24.6%
COCCNC(=O)c1cc2c(-c3ccccc3F)nn(C)c2s1	14.6%
Cc1ccc(C2CC(=O)N3CN(Cc4ccco4)CSC3=C2C#N)cc1 (centres undefined)	-8.5%
Cc1nc2ccccc2c2oc(C(=O)NCc3ccc4c(c3)OCO4)cc12	142.3%
Cc1cc(Cl)ccc1OCCCC(N)=O	9.4%
O=C(NCc1ccccn1)C1CCN(S(=O)(=O)c2cccs2)CC1	-5.5%
Cc1ccc(S(=O)(=O)NCc2cn3ccsc3n2)c(C)c1	5.8%
COC(=O)c1ccc(CSc2nnc(SCc3ccc(C(=O)OC)o3)s2)o1	23.2%
CC(=O)Nc1nonc1NC(=O)CSc1ncn[nH]1	-5.6%
CCCC(=O)Nc1ccc(NC(=O)c2ccccc2Cl)nc1	5.5%
COc1ccc(C2/C(=C(\O)c3ccc4c(c3)OCCO4)C(=O)C(=O)N2CCCN(C)C)c(OC)c1 (centres undefined)	-0.3%
Cc1cccc(NC(=O)c2ccc(S(=O)(=O)N(C)C)cc2)c1	-3.9%
Cc1onc(-c2ccccc2Cl)c1C(=O)Nc1cccc(-c2cn3cccnc3n2)c1	79.9%
COC(=O)CSc1nc2ccc(NC(C)=O)cc2s1	-8.0%
Cc1cc(NC(=O)C23CCC(C)(c4nc5cc(Cl)c(Cl)cc5nc42)C3(C)C)no1 (centres undefined)	25.2%
CCC(=O)Nc1ccc(N2CCN(C(=O)c3ccccc3C)CC2)cc1	6.0%
CC(=O)[C@@]1(O)Cc2c(O)c3c(c(O)c2[C@H](O[C@H]2C[C@H](N)[C@H](O)[C@H](C)O2)C1)C(=O)c1ccccc1C3=O	86.3%
COc1ccccc1-n1c(SCC(=O)Nc2ccccc2F)nc2[nH]ncc2c1=O	16.1%
CN1C(C)(C)CC(NC(=O)CCC(=O)NC2CC(C)(C)N(C)C(C)(C)C2)CC1(C)C	9.5%
O=C(c1ccncc1)N1CCC2(CCN(Cc3ccncc3)CC2)CC1	12.2%
COC(=O)c1ccccc1NC(=O)CNC(=O)c1ccco1	4.1%
CC1CCc2nn(CC(=O)NCc3ccco3)cc2C1 (centres undefined)	15.1%
CC1CCc2nc(NC(=O)C3CCCO3)sc2C1 (centres undefined)	20.7%

Only part of the results is shown. The share of hits here may be higher or lower than overall.
